# FGF22 binding: binders of human FGF22 protein, primary screen, FGF22 synaptogenesis inhibitor project, biophysical, thermal shift, single point | recombinant FGF22 thermal shift, SYPRO orange fluorescence; percent of sucrose octasulfate shift, DMSO zero | calls only at 9.99 µM | 340,000 compounds, 1.5% hits | AID 651658, 2012;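 active = melting point raised past a set limit in the mean and every replicate; inconclusive = no clear call; three in four hits are not shown here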
# Target sequence (Q9HCT0 whole entry, looked up): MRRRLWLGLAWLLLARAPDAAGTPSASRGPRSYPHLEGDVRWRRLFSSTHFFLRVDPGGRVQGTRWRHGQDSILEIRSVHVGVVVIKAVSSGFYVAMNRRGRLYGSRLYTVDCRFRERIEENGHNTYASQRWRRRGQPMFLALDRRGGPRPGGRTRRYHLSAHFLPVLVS
# Beta2AR agonist: beta2AR agonists driving receptor internalization, primary screen, cell-based, FAP fluorogen, flow cytometry | Beta-2 adrenergic receptor (Homo sapiens), P07550 | Am2.2-beta2AR cells; reference of the scale not given here | response, % (concentration not given with the values) | 340,000 compounds, 0.43% hits | AID 504454, 2011;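 active = response above a set limit, near 3 SD of response in nonfluorescent compounds, cut at about 42% in these data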;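 also: stock transfer was 100 nL into about 11 µL; a reference agonist was the positive control; negative values mostly stem from fluorescent compounds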
# Ecoli growth: E. coli growth inhibition, primary screen, OD600; Escherichia coli growth, 23 h; stronger effect = lower value; OD600 absorbance (test concentration not listed); 330,000 compounds, 0.21% hits; AID 1053175, 2014;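 active = OD600 absorbance below the run mean of sample wells minus 3.6 SD, in any replicate, cut at about 0.56 in these data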;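 also: stock transfer was 300 nL into about 60 µL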
# UCH37 inh: inhibitors of human UCH37 deubiquitinase, primary screen, biochemical, Ub-AMC cleavage, fluorescence. Ubiquitin carboxyl-terminal hydrolase isozyme L5 (Homo sapiens), Q9Y5K5. 330,000 compounds, 0.33% hits. purified proteasome/UCH37. AID 588478, 2011. inhibition, % (test concentration not listed);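 active = mean of two replicates above 20%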;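 also: 0% = compound-free wells with enzyme and 100% = wells lacking proteasome; stock transfer was 100 nL into about 20 µL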
# Target sequence (Q9Y5K5 whole entry, looked up): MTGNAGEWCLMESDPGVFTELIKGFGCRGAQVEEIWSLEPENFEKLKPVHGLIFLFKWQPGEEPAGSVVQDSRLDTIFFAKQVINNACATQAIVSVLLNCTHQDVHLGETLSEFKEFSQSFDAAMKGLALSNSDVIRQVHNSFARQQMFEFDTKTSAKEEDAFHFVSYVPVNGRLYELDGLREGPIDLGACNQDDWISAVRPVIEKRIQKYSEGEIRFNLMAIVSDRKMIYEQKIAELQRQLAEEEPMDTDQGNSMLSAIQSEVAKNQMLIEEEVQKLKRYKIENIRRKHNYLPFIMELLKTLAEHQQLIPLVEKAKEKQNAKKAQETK
#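 Reagent: Ub-AMC substrate; assay system: Proteasome-associated human UCH37 deubiquitinase; controls: no-proteasome and no-compound wells; read-out: % inhibition of Ub-AMC cleavage fluorescence; timing: 30 min preincubation with enzyme, 25 min cleavage at room temperature; signal: AMC fluorescence from Ub-AMC cleavage, excitation 355 nm, emission 460 nm; buffer or medium: Tris-HCl pH 7.4 plus ovalbumin, ATP-MgCl2, DTT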
# ALR inh: inhibitors of human ALR sulfhydryl oxidase, primary screen, biochemical, H2O2 detection, HRP-luminol luminescence, single point; FAD-linked sulfhydryl oxidase ALR (Homo sapiens), P55789; purified ALR, DTT oxidation; inhibition, % (test concentration not listed); 290,000 compounds, 3.8% hits;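 active = mean and each replicate at 75% or more; inconclusive = only one of the two met; inactive = neither met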;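 also: stock transfer was 7.5 nL into about 7.5 µL; 0% = neutral wells and 100% = wells with inactivated enzyme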
# HNF4A DNA FP: change in binding of human HNF4A to DNA, primary screen, biochemical, fluorescence polarization, FITC-DNA; Hepatocyte nuclear factor 4-alpha (Homo sapiens), P41235; 1 h; activity change, % at 10 µM; 360,000 compounds, 0.3% hits; AID 1224865, 2016; in the data active = activity change above about 30%, passing the limit was not always enough;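 also: controls were the assay level and a saturating level of protein; the project sought stronger binding though the title names inhibitors; some compounds called inactive have numbers as strong as hits; positive values seem to mean higher polarization but the record does not say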
# Target sequence (P41235 whole entry, looked up): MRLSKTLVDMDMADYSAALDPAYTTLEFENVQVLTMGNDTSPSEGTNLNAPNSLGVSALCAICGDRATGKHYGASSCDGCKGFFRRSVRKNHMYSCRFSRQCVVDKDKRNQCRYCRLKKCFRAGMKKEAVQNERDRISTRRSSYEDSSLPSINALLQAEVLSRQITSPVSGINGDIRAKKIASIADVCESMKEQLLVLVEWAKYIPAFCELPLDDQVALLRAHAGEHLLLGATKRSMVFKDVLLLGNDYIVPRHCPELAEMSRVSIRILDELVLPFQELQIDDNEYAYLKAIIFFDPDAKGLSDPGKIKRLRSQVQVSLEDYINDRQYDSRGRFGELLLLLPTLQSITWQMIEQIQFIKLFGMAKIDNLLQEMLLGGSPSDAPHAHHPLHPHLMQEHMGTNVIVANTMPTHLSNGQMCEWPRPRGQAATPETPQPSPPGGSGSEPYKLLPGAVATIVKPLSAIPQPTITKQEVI
# LANA-H2B inh: blockers of LANA interaction with H2A/H2B – biochemical, FP readout, HTS, primary screen; AID 2629, 2010; Protein LANA1 (Human herpesvirus 8 type P (isolate GK18)), Q9QR71; inhibition, % (no concentration beside the values); cell-free LANA-H2A/H2B peptide, fluorescence polarization; 320,000 compounds, 0.6% hits; in the data active = inhibition mostly above about 10%, no sharp cut-off; inactive = mostly below about 6.7%;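 also: stock transfer was 7.5 nL into about 10 µL; 0% = median of vehicle wells and 100% = median of positive control wells; one replicate is shown; the record names a cut of 25% in any replicate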
# Active calls of the source: *; i = inactive; ? = inconclusive; . = not tested or not shown. This is a subset; the hit share may differ from the screen's.
SMILES,FGF22 binding,Beta2AR agonist,Ecoli growth,UCH37 inh,ALR inh,HNF4A DNA FP,LANA-H2B inh
O=C(COC(=O)/C=C/c1ccccc1Cl)NCc1ccco1,i,1.1,0.747,0.0,5.1,-0.2,4.8
COc1ccc(N2CCN(c3nc4c(C)cccn4c(=O)c3/C=C(\C#N)C(N)=O)CC2)cc1,i,2.8,0.701,-141.1,26.7,-1.3,-5.1
COc1nn(C(C)C(=O)N2N=C(C(F)F)CC2(O)C(F)F)cc1[N+](=O)[O-] (stereo unspecified),.,4.0,0.742,0.6,-5.4,-1.5,3.4
c1ccc2c(c1)CCCN2c1nc2ccccc2n2cnnc12,i,-11.3,0.692,8.9,-4.3,-0.9,2.0
CCOC(=O)C(=O)Nc1ccc2c(c1)OCO2,.,4.7,0.731,2.1,-23.5,1.4,2.1
O=C(NC1CCCC1)c1n[nH]c2ccccc12,i,2.6,0.707,2.6,5.5,-0.8,0.3
Nc1c(C(=O)NCc2ccco2)c2nc3ccccc3nc2n1CCc1ccccc1,i,1.2,0.685,-85.7,.,6.1,.
COc1ccc(/C(C)=N/NC(=O)c2nnn(-c3nonc3N)c2CN(C)c2ccccc2)cc1,i,4.9,.,.,-2.0,-2.8,-3.6
NS(=O)(=O)c1ccc(CCNCC#Cc2ccccc2)cc1,i,1.7,0.641,2.6,-4.6,0.6,4.6
CCOc1ccc(C(=O)Nc2ccc(S(=O)(=O)Nc3nccc(C)n3)cc2)cc1OCC,i,0.6,0.701,1.2,-25.2,3.0,2.1
CSc1ccccc1OCc1cc(C(=O)NC(C)c2cnn(C)c2)no1 (stereo unspecified),i,14.3,0.688,-0.1,-1.7,-4.0,2.7
Cc1c(C(=O)/C=C/c2cccs2)oc2ccc(F)cc12,.,.,0.724,2.0,-1.2,2.1,0.5

# A different layout for some results above:
canonical_smiles | FGF22 binding | Beta2AR agonist | Ecoli growth | UCH37 inh | ALR inh | HNF4A DNA FP | LANA-H2B inh
O=C(NC1CCCC1)c1n[nH]c2ccccc12 | i | 2.6 | 0.707 | 2.6 | 5.5 | -0.8 | 0.3
CSc1ccccc1OCc1cc(C(=O)NC(C)c2cnn(C)c2)no1 (stereo unspecified) | i | 14.3 | 0.688 | -0.1 | -1.7 | -4.0 | 2.7

# (more compounds)
SMILES,FGF22 binding,Beta2AR agonist,Ecoli growth,UCH37 inh,ALR inh,HNF4A DNA FP,LANA-H2B inh
CC(=O)Nc1ccc(N(C(=O)c2cnccn2)C(C(=O)NC2CCCCC2)c2ccc(F)cc2)cc1 (stereo unspecified),i,-12.5,0.686,2.6,0.1,0.5,7.1
Nc1ccccc1SCC(=O)Nc1cccc2ccccc12,i,-2.9,.,.,-39.5,-2.0,3.7
COc1ccc(S(=O)(=O)N(C)c2ccc(C(=O)Nc3cccnc3)cc2)cc1,i,-7.5,0.717,-0.4,4.8,1.8,0.9
Cc1ccc(NC(=O)C2CC2C)cc1S(=O)(=O)N1CCOCC1 (stereo unspecified),i,3.6,0.697,-0.1,0.3,-3.8,2.2
Cc1ccccc1NC(=O)C1(C)Cc2ccccc2C(=O)O1 (stereo unspecified),.,14.4,0.708,-0.9,-2.7,-1.1,-4.6
Cc1ccc(S(=O)(=O)N2CCCCC2)cc1C(=O)N1CCN(c2ccccn2)CC1,i,1.7,0.708,5.3,-1.4,1.6,3.6
O=C1Nc2ccccc2N(O)N1c1ccc(S(=O)(=O)N2CCCCCC2)cc1,.,2.6,0.758,2.1,-6.3,3.0,-5.3
O=C(Nc1ccc2c(c1)OCO2)C1CC(c2cccc(Br)c2)=NO1 (stereo unspecified),.,-11.4,.,.,4.3,-1.3,-1.3
c1ccc2c(c1)Cc1cc3ccccc3nc1-2,i,-3.9,0.622,-2.1,.,-3.0,8.6
O=C(CSc1ccsc1[N+](=O)[O-])N1CCN(c2ccccc2)CC1,i,6.1,0.68,5.2,3.0,-5.3,-1.7
CCN1C(=O)c2cccc3c(NC(=O)C(C)(C)C)ccc1c23,.,3.1,0.694,6.6,-38.3,2.2,-2.0
COc1ccc2cc(-c3ccsc3)ncc2c1,i,-11.0,0.667,-0.3,-6.1,-0.1,0.3
COCCCn1[nH]c2c3c(ccc2c1=O)C(=O)c1ccccc1C3=O,.,-2.8,0.699,3.9,59.3,-2.6,7.0
CCC(C)(C(=O)NC1CCCCC1)N(CC1CCCO1)C(=O)c1ccccn1 (stereo unspecified),.,-3.6,0.682,4.6,-15.5,-0.2,2.5
Cc1cccc(NC(=O)CSc2nccn2Cc2ccco2)c1,i,-0.1,0.647,0.1,?,-2.1,0.0
Cc1ccc(C2N(c3ccccc3)C(=O)N3CCCN23)cc1 (stereo unspecified),i,5.2,0.677,5.0,-3.0,0.8,7.9
OCCNC(=S)Nc1ccc(Oc2ccccc2)cc1,i,-44.5,0.691,3.1,-10.6,4.5,3.6
O=C(Cc1c[nH]c2ccccc12)Nc1nnc(C2CC2)s1,i,-11.3,0.686,1.5,-7.4,1.2,3.2
O=C(c1ccc2c(c1)OCCO2)C1CCN(C(=O)Nc2ccccc2F)CC1,i,-3.5,0.663,-0.2,-4.6,4.3,-0.5
O=C(O)CCCCCCCCCCCc1ccccc1,i,-1.4,0.695,4.8,24.6,-4.0,7.0
COc1ccc(NC(=O)CCOc2ccccc2)cc1,.,-5.8,0.734,-0.5,0.5,-0.8,1.5
CC(C)(C)OC(=O)N1CCCC(C(=O)Nc2ccc(C(=O)N3CCCC3)cc2)C1 (stereo unspecified),i,5.9,0.625,1.2,10.8,-1.7,3.3
O=C(OCC(=O)N1CCCC1=O)c1cccc([N+](=O)[O-])c1,i,-4.1,0.719,5.6,-4.6,2.0,-8.7
CCOc1ccc(NC(=O)CN(C)S(=O)(=O)c2cccc3cccnc23)cc1,i,0.4,0.668,1.3,-9.6,-1.2,5.9
O=C(Nn1c(SCc2ccccc2F)nc2ccsc2c1=O)c1ccccc1,i,2.7,0.702,1.8,0.0,-2.0,-6.5
OCC[C@H]1C[C@H](O)[C@@H](O)[C@@]2(CCc3ccccc3O2)O1,i,-1.7,.,3.9,.,2.5,1.5
CC1CN(S(=O)(=O)c2cccc(C(=O)NCC(c3cccs3)N3CCOCC3)c2)CC(C)O1 (stereo unspecified),i,-3.6,.,.,.,-1.4,.
c1ccc(N2CCN(Cc3nnnn3C3CCCCC3)CC2)cc1,.,-0.6,0.655,0.6,?,2.2,-4.7
C=CCN1C(=O)/C(=C/c2ccc(OCC(=O)O)cc2)S/C1=N/c1nccs1,i,-2.7,.,.,.,3.5,-0.1
CCCOc1ccc(C2C(C(=O)c3ccco3)=C(O)C(=O)N2CCN2CCOCC2)cc1OC (stereo unspecified),.,.,0.689,4.9,-2.9,.,-0.9
O=S(=O)(NCC1CCN(c2ccc(S(=O)(=O)N3CCOCC3)cc2)CC1)c1ccccc1,i,6.4,0.71,1.3,.,-2.1,.
CCc1cc(C(=O)NNC(=S)NCc2ccccc2)cs1,.,7.4,0.702,0.7,0.6,4.5,-0.8
Cc1ccc(NS(=O)(=O)c2ccc(OCC(=O)NCc3cccnc3)cc2)cc1,i,0.2,0.706,2.1,-6.2,1.4,-3.8
CC(C)(C)C(=O)Nc1ccc(C(=O)CN2C(=O)NC3(CCOc4ccccc43)C2=O)cc1 (stereo unspecified),i,7.0,0.724,-1.9,-10.1,1.6,3.6
CCNc1nc(NC(C)C)nc(Oc2ccc(/C=N/O)cc2)n1,.,3.9,.,.,-5.9,-3.3,0.4
NCC(O)CN1CCN(Cc2ccccc2)CC1 (stereo unspecified),i,5.3,0.695,0.1,-12.2,-1.2,-4.5
Cc1nccc2[nH]c(=O)c(C(=O)NC(C)CCc3ccccc3)cc12 (stereo unspecified),.,.,0.727,0.9,-2.0,.,-1.9
CCc1nnc(NC(=O)CSc2ncc(-c3ccccc3)n2CC)s1,.,-5.9,0.711,-1.5,.,0.1,1.5
FC(F)Oc1ccc(NC(=S)NCc2ccccc2)cc1Cl,.,4.3,0.579,1.0,-42.8,-2.8,5.2
Cc1ccc2cc(CN(Cc3ccc4c(c3)OCO4)Cc3nnnn3Cc3ccco3)c(=O)[nH]c2c1C,.,-3.0,0.75,-0.3,0.0,7.7,1.5
CC(CN1CCCCC1)NC(=O)c1cc(-c2ccccn2)nc2ccc(Cl)cc12 (stereo unspecified),i,5.7,0.693,3.2,-0.5,1.6,-2.7
N#CC1CCCc2c1[nH]c1ccc([N+](=O)[O-])cc21 (stereo unspecified),i,6.5,0.658,0.3,25.8,3.0,-3.2
Cn1c(SCC(=O)NC2CCCCC2)nnc1-c1cccnc1,i,-8.8,0.713,3.6,.,-1.2,13.9
c1ccc(N2CC[N+]3(CCCC3)CC2)nc1,i,1.4,0.721,4.0,0.5,-5.2,0.4
O=S1(=O)N=C(c2ccccc2)C=C(c2ccccc2)N1,i,-4.9,0.705,1.8,.,-2.8,.
CCOc1ccc(C(=O)CCC(=O)NNC(=O)CCN2CCN(c3ccccc3)CC2)cc1,i,6.2,0.695,3.4,95.1*,-0.1,-1.9
CSc1nc2ccccc2s1,i,-0.3,0.68,-4.2,?,-4.6,2.5
CCOP(=O)(OCC)C(Nc1cc(Cl)cc(Cl)c1)c1cccc(O)c1 (stereo unspecified),i,-5.3,0.665,1.5,-0.8,4.7,2.8
Cn1c(CC(=O)Nc2ccccc2F)nnc1SCC(=O)Nc1nccs1,i,-2.2,0.674,1.3,-1.1,-0.6,1.0
CCCCN1/C(=C/c2cccc[n+]2C)Sc2cc(NC(C)=O)ccc21,i,-8.6,0.656,5.2,52.0,4.5,-25.0
COc1ccc(Cl)cc1NC(=O)CSc1nc(N2CCCCC2)nc(N2CCCCC2)n1,.,-15.0,0.784,3.9,-21.4,-5.3,1.6
C=CCn1c(Cc2cccs2)nnc1SCC(=O)c1ccc(F)cc1,.,-4.1,0.734,5.9,.,-0.6,-0.3
COc1ccc(Br)cc1/C=C/C(=O)Nc1ccc(C)cc1,.,8.9,.,4.8,-5.3,-0.3,-3.7
Cc1ccc(-n2nnc3c(=O)n(CC(N)=O)cnc32)cc1,i,4.2,.,.,0.2,1.2,1.8
CCOc1ccc(N2C(=O)C3C(c4ccccc4)=NN(c4ccccc4)C3C2=O)cc1 (stereo unspecified),i,-7.5,0.73,i,-1.6,-2.7,6.2
OCC(Cc1ccccc1)Nc1c2ccccc2nc2ccccc12 (stereo unspecified),.,-7.7,0.642,-22.7,-4.8,-10.5,-1.5
CN(C)c1ccc(N/C=C/C(=O)C(C)(C)C)cc1,.,4.0,0.714,9.2,99.4*,3.0,-3.9
O=C(Nc1cc(Cl)ccc1N1CCCC1)C1=COCCO1,i,1.1,0.696,2.0,.,6.4,-0.6
O=C(O)c1ccc(NC(=O)c2ccccc2NC(=O)c2ccccc2Cl)cc1,i,1.4,0.648,0.8,12.7,-0.3,3.4
CSc1nc(C)c(C(=O)Nc2ccccc2)c(C)c1C#N,i,8.0,0.712,-1.7,-9.8,0.3,0.7
COc1ccc(C2Nc3ccccc3C(=O)N2c2ccc(C)cc2)cc1Cn1nc(C)c([N+](=O)[O-])c1C (stereo unspecified),i,3.8,0.725,-3.8,-1.3,0.1,-4.5
CCCCCC(=O)Nc1ccc2ccccc2c1,.,3.3,0.69,3.4,.,4.0,.
CCc1c(O)nc(SCc2nc3ccccc3c(=O)[nH]2)[nH]c1=O,i,6.8,0.714,6.4,98.0*,0.0,2.0
